Screening results deposited in PubChem by several laboratories.
UCH37 DUB inh: inhibitors of human deubiquitinating enzyme UCH37; purified proteasome/UCH37, Ub-AMC cleavage fluorescence; inhibition, % (concentration not given with the values); actives 0.33% (n = 330,000); AID 588478;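 active = mean of two replicates above 20%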;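 also: 0% = compound-free wells with enzyme and 100% = wells lacking proteasome; stock transfer was 100 nL into about 20 µL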
Target sequence (Q9Y5K5 whole entry, looked up): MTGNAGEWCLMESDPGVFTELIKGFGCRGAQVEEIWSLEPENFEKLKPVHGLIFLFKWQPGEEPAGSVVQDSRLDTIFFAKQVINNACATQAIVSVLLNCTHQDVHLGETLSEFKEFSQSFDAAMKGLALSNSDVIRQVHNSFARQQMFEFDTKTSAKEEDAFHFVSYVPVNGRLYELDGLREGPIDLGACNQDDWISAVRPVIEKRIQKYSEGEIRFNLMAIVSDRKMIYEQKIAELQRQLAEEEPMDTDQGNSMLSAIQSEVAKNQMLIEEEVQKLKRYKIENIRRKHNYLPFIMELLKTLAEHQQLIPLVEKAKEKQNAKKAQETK
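Material: Human UCH37 enzyme supplied as purified proteasome complex | Schedule: 30 min preincubation with enzyme, 25 min cleavage at room temperature | Detection: AMC fluorescence 355/460 nm | Measure: % inhibition of Ub-AMC cleavage fluorescence | Controls: Wells without proteasome as full block, compound-free enzyme plus substrate as uninhibited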
Ecoli growth: E. coli growth inhibition | Escherichia coli growth, OD600, 23 h; active compounds read low | OD600 absorbance (concentration not given with the values) | actives 0.21% (n = 330,000);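 active = OD600 absorbance below the run mean of sample wells minus 3.6 SD, in any replicate, cut at about 0.56 in these data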;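 also: stock transfer was 300 nL into about 60 µL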
RanGTP-Impb inh: inhibitors of RanGTP-importin-beta interaction, primary screen, biochemical, FRET, CFP-Ran, YFP-importin-beta, homogeneous. cell-free CFP-Ran/YFP-importin-beta FRET ratio. inhibition, % (concentration not given with the values). actives 1.1% (n = 300,000). AID 2216;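 active = most replicates above 15%; inconclusive = exactly half above 15%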;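 also: 0% = DMSO wells and 100% = Ran loaded with GDP instead of GTP; wells of about 40 µL received 100 nL stock; the first replicate is given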
Vif TR-FRET: inhibitors of Vif binding to APOBEC3G peptide, primary screen, biochemical, TR-FRET, GST-Vif 1-94, biotin-A3G peptide, dose response retest (AID 1117319) | TR-FRET GST-Vif / biotin-A3G peptide binding; higher % means a stronger effect; test concentration not given here; strong numbers were not always called active | one-dose inhibition, %; IC50 in µM for titrated hits | actives 0.57% (n = 260,000);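 active = above the screen mean plus three standard deviations and confirmed in dose response; inconclusive = results disagree or hit not tested in dose response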;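 also: Vif residues 1-94 fused to GST binding biotinylated APOBEC3G peptide 110-148; 0% = full assay without inhibitor and 100% = GST in place of GST-Vif; retest series ran down from 100 µM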
AF4-AF9 inh: inhibitors of human MLL-AF4/AF9 interaction; AlphaScreen, biotin-AF4 peptide binding to FLAG-AF9; AID 651704; P42568; actives 0.47% (n = 350,000); inhibition, % at 10 µM;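 active = every replicate reaching a set inhibition limit, whatever the replicate mean, cut at about 25% in these data; inconclusive = mean inhibition reaches that limit but some replicates miss it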;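 also: 0% = plate neutral control median and 100% = total signal loss; the record names both 10 and 1 µM as test concentration; the first replicate is given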
FGF22 binding: FGF22 (human) thermal shift binding | recombinant FGF22 thermal shift, SYPRO orange fluorescence; percent of sucrose octasulfate shift, DMSO zero | calls only at 9.99 µM | AID 651658 | Q9HCT0 | actives 1.5% (n = 340,000);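 active = melting point raised past a set limit in the mean and every replicate; inconclusive = no clear call; three in four hits are not shown here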
Target sequence (Q9HCT0 whole entry, looked up): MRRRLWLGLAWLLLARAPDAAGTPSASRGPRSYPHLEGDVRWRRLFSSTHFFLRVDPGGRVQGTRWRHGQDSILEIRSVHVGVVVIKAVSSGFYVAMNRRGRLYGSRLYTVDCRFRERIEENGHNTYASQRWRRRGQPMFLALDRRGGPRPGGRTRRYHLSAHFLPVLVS
HNF4A DNA FP: change in binding of human HNF4 alpha to DNA; HNF4a-FITC DNA binding, fluorescence polarization, 1 h; activity change, % at 10 µM; AID 1224865; actives 0.3% (n = 360,000); in the data active = activity change above about 30%, passing the limit was not always enough;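 also: controls were the assay level and a saturating level of protein; the project sought stronger binding though the title names inhibitors; some compounds called inactive have numbers as strong as hits; positive values seem to mean higher polarization but the record does not say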
Target sequence (P41235 whole entry, looked up): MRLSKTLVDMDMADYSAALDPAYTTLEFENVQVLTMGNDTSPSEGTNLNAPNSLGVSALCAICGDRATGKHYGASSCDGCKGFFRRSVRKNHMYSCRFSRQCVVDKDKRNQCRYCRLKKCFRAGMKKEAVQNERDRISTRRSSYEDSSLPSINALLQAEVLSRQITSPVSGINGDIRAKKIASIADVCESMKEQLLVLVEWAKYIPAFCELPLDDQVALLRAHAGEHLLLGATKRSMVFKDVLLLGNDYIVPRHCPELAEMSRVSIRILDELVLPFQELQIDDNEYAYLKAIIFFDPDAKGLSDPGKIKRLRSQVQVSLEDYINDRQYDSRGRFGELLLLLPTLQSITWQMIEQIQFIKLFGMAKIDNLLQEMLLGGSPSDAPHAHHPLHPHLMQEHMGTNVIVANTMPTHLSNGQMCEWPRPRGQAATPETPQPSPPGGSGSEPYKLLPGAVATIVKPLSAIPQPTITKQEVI
* = called active by the depositor; i = inactive; u = inconclusive; x = no result given; & = joins results of further samples. These rows are one share of the data; count on the stated rates, not on these rows.

SMILES | UCH37 DUB inh | Ecoli growth | RanGTP-Impb inh | Vif TR-FRET | AF4-AF9 inh | FGF22 binding | HNF4A DNA FP
CC(C)(C)C(=O)Nc1ccc(S(=O)(=O)Nc2ccccn2)cc1 | -1.0 | 0.71 | -0.5 | x | -1.1 | i | 1.4
NC(=O)Cc1ncc(C(F)(F)F)cc1Cl | 0.3 | 0.68 | -0.6 | 15% | -2.8 | i | 5.7
CN(Cc1cnc2nc(N)nc(N)c2n1)c1ccc(C(=O)N[C@@H](CCC(=O)O)C(=O)O)cc1 | 4.4&-0.3 | x | 23* | x | -6.8&0.2 | i | -0.1&-3.6
CCCc1nnc(NC(=O)c2nc(S(=O)(=O)Cc3cccc(C)c3)ncc2Cl)s1 | x | x | 2.7 | x | -18 | i | -2.9
O=C(NNC(=O)C1CC=CCC1)c1ccccc1Cl (stereo unspecified) | 2.5 | 0.6 | -1.2 | x | 0.3 | i | -3.4
COc1ccc(-c2cc(C(=O)OCC(=O)Nc3cc(C)on3)c3ccccc3n2)cc1OC | -23 | 0.74 | 90* | -10% | x | x | 2.5
CC(C)(C)NC(=O)Cn1nnc(-c2ccc(Cl)cc2)n1 | -0.5 | 0.72 | -2.0 | 13% | 6.2 | i | -0.7
CC(=O)c1c(C)[nH]c(C(=O)Nc2nc(-c3ccc(-c4ccccc4)cc3)cs2)c1C | -22 | 0.68 | 1.0 | x | -1.2 | i | 3.6
Cc1ccc(NC(=O)C[n+]2cc(-c3ccc(C)cc3)n3c2CCC3)cc1 | 2.8 | 0.67 | 1.2 | 0% | 0.3 | i | 1.5
CCC1(CC)NC(=O)N(CC(=O)Nc2ccc(S(=O)(=O)N3CCOCC3)cc2)C1=O | 2.3 | 0.69 | 2.6 | 11% | 1.2 | i | -0.4
COc1ccc(S(=O)(=O)N(C)C)cc1NS(=O)(=O)c1ccc(F)c(F)c1F | 2.3 | 0.66 | 0.4 | 21% | x | x | 0.9
COc1ccc(NC(=S)NC(=O)c2cc3ccccc3o2)c(OC)c1 | 10 | 0.74 | -2.9 | x | -1.2 | i | -0.7
Cc1ccc(N2NC3(CCN(C(N)=O)CC3)NC2=O)cc1 | 1.8 | 0.68 | 7.1 | x | -0.2 | i | x
NC(=O)c1c(NC(=O)COC(=O)c2ccc(S(=O)(=O)Nc3ccccc3)cc2)sc2c1CCCC2 | 1.6 | 0.74 | 1.1 | -5% | 1.1 | i | 1.3
Cc1ccc(CN2C(=O)C(F)(F)Oc3ccccc32)cc1 | x | x | x | x | -1.6 | i | -3.9
O=C(CC1SC(N2CCCCC2)=NC1=O)Nc1cccc(C(=O)O)c1 (stereo unspecified) | 1.0 | 0.7 | 2.9 | 5% | x | x | 0.7
Cc1ccc(C)c(NC(=O)C(=O)NCC2CCCN2S(=O)(=O)c2cccs2)c1 (stereo unspecified) | -0.8 | 0.65 | 1.1 | 3% | -43 | i | -0.3
O=C(Nc1ccccc1N1CCCC1)c1ccccc1Cl | 1.4 | 0.69 | -0.4 | x | 4.7 | i | -4.8
Cc1cc(NC(=O)CCC(=O)N(CC(=O)NCC2CCCO2)c2ccc(C)c(C)c2)no1 (stereo unspecified) | 4.2 | 0.67 | 5.2 | x | 1.5 | i | -3.1
Cc1ccc(CSCCNC(=O)c2ccc(Cl)c(S(=O)(=O)N3CCOCC3)c2)cc1 | 4.0 | 0.66 | 0.1 | 1% | x | x | 3.6
Clc1cccc(Cc2c(-c3cccc(Br)c3)nc3ccc(Br)cn23)c1 | x | x | x | x | -0.9 | i | 12
O=[N+]([O-])c1ccc2nc(NS(=O)(=O)c3ccc(Cl)cc3)sc2c1 | 6.6 | 0.62 | 1.7 | 6% | -0.6 | i | -0.6
Cc1cccc(CNc2ncc(-c3cccc([N+](=O)[O-])c3)n2C)c1 | 3.2 | 0.71 | 1.6 | 10% | 20 | i | -3.1
CC(C)CCN1CCN(CC#Cc2ccccc2)CC1CCO (stereo unspecified) | 0.1 | 0.7 | 0.7 | -2% | 0.6 | i | -1.0
COc1ccc(C(C(=O)NCC2CCCO2)N(C(=O)Cn2nnc3ccccc32)c2ccc(NC(C)=O)cc2)c(OC)c1 (stereo unspecified) | 5.1 | 0.68 | -17 | x | 1.9 | i | -2.9

Entries listed above that bear a hit mark in RanGTP-Impb inh.
smiles,UCH37 DUB inh,RanGTP-Impb inh,Vif TR-FRET,AF4-AF9 inh,FGF22 binding,HNF4A DNA FP
CN(Cc1cnc2nc(N)nc(N)c2n1)c1ccc(C(=O)N[C@@H](CCC(=O)O)C(=O)O)cc1,4.4&-0.3,23*,x,-6.8&0.2,i,-0.1&-3.6
COc1ccc(-c2cc(C(=O)OCC(=O)Nc3cc(C)on3)c3ccccc3n2)cc1OC,-23,90*,-10%,x,x,2.5

The results go on:
SMILES | UCH37 DUB inh | Ecoli growth | RanGTP-Impb inh | Vif TR-FRET | AF4-AF9 inh | FGF22 binding | HNF4A DNA FP
CCCNC(=O)COC(=O)c1ccccc1OCC(=O)Nc1ccc(Br)cc1 | x | x | 2.8 | -10% | -7.6 | i | -1.4
COc1ccc(-c2cc3nc(C)cc(N)n3n2)cc1 | -11 | 0.67 | 3.7 | 5% | x | x | -1.3
Clc1ccc(CN2CC[C@H]3C=CCc4cccc(c43)C2)cc1 | 5.6 | x | x | x | 7.4 | i | -0.3
CCCc1nc2sc3ccccc3c(=O)c2c(=O)n1CCOC | 0.2 | 0.65 | 0.9 | -5% | x | x | x
CCCc1[nH]nc2c1C(c1cc(OC)cc(OC)c1)C(C#N)=C(N)O2 (stereo unspecified) | 1.5 | 0.68 | -0.3 | 32% | x | x | 1.2
O=C(CCCN1C(=O)c2ccccc2C1=O)N1CCCCC1 | 3.2 | 0.78 | 1.7 | 7% | x | x | -2.7
CC(C)NCC(O)c1ccc(NS(C)(=O)=O)cc1 (stereo unspecified) | 4.1 | 0.72 | -1.6 | 4% | 0.7 | i | -3.7
O=C(Cc1ccccc1[N+](=O)[O-])Nc1ccc(S(=O)(=O)N2CCCC2)cc1 | x | x | 5.0 | -7% | -7.2 | i | 3.7
Cc1c(=O)n(OCc2ccccn2)c2ccccc2[n+]1[O-] | -11 | 0.69 | 0.8 | -8% | x | x | 0.3
CC(=O)C[C@H](O)CC(=O)[C@H]1OC(=O)CCCCCCc2ccccc21 | 0.5 | 0.71 | x | -4% | 0.6 | i | 1.8
COc1cc(C(=O)Nc2ccc([N+](=O)[O-])cn2)cc(OC)c1OC | 3.1 | 0.66 | -0.8 | x | x | x | 0.8
O=C(c1ccc(C(F)(F)F)cc1)C1CCCN(C(=O)Cn2cncn2)C1 (stereo unspecified) | 4.1 | 0.71 | 3.6 | -5% | -0.4 | i | -1.0
C=CCN1C(c2ccccc2)=CS/C1=C(\C#N)c1nnc2n1CCCCC2 | 10 | 0.69 | 2.1 | -5%&33% | x | x | 4.6
O=C(CSCc1ccco1)Nc1cc(C(F)(F)F)ccc1N1CCOCC1 | 2.6 | 0.68 | 2.2 | 18% | x | x | 6.8
CC1(c2ccc(OC(F)F)cc2)NC(=O)N(CC(=O)NC2CCCC2)C1=O (stereo unspecified) | -1.0 | 0.69 | x | 5% | -3.5 | i | -3.3
CCc1cc2c(-c3ccccc3)cc(=O)oc2c(CN2CCOCC2)c1O | -56 | 0.66 | -2.0 | 2% | x | x | 1.9
CCOC(=O)N1CCN(c2cc(N3CCN(CC)CC3)c(F)cc2[N+](=O)[O-])CC1C (stereo unspecified) | 7.2 | 0.76 | 2.4 | 4% | x | x | 0.2
CCCN(CCC)C(=O)CSc1nc2n[nH]c(C)c2c(=N)n1-c1ccc(OCC)cc1 | -1.2 | 0.73 | 0.5 | -1% | x | x | 4.3
Cc1cc(-c2ccncc2)n2ncc(-c3ccccc3)c2n1 | x | x | x | x | 0.5 | i | 1.2
O=C(CN(C(=O)CCC(=O)Nc1nccs1)c1cccc(F)c1)NCc1ccccc1 | 4.1 | 0.73 | -0.7 | x | -14 | i | 1.9
COc1cccc(-c2ccc(NC(=O)C3CCCN(Cc4ccc(CO)o4)C3)cc2)c1 (stereo unspecified) | 3.9 | 0.71 | -0.9 | x | 3.0 | i | -2.1
CCCCN(C(=O)C1CCC1)c1c(N)n(CCC)c(=O)[nH]c1=O | 0.6 | 0.63 | 1.1 | -3% | -13 | i | 2.0
Cc1cc(OCCOc2cccc3cccnc23)cc(C)c1Cl | -2.6 | 0.75 | -1.5 | 0% | x | x | -0.6
CCOC(=O)COn1c(=O)c(=O)n(OC)c2ccccc21 | 2.0 | 0.69 | 2.6 | 0% | x | x | 2.5
CCN(CC)CCCC(C)Nc1nccc2cccc(Cl)c12 (stereo unspecified) | 3.4 | 0.66 | x | -1% | -3.0 | i | 0.8
Additional records follow.
SMILES | UCH37 DUB inh | Ecoli growth | RanGTP-Impb inh | Vif TR-FRET | AF4-AF9 inh | FGF22 binding | HNF4A DNA FP
CN(C)C(=O)c1cc(C(=O)c2ccc(C(F)(F)F)cc2)c[nH]1 | 0.8 | 0.67 | -0.1 | x | -2.7 | i | 2.4
Cc1nonc1NC(=O)CSc1nnc(-c2ccoc2C)n1-c1cccc(Cl)c1 | 6.0 | 0.72 | 2.7 | 2% | x | x | 3.7
COc1ccc2[nH]c(C(=O)N3CCC(CO)(Cc4cccc(C(F)(F)F)c4)CC3)c(C)c2c1 | 4.3 | 0.68 | u | x | 2.8 | i | -4.1
CC(C)(C)c1ccc(CN2C3=NCCCN3c3ccccc32)cc1 | 3.0 | 0.64 | u | 2% | x | x | -1.1
Cc1csc(NC(=O)CSc2nnc3ncccn23)n1 | 3.6 | 0.66 | -1.7 | 9% | x | x | -0.1
COc1ccc(CCNc2nc(-c3cccnc3)cs2)cc1OC | 2.0 | 0.72 | -3.0 | -5% | x | x | -2.6
CN(C)c1ccc(CNC(=O)C2Cc3c(-c4ccccc4Oc4ccccc4)ccnc3O2)cc1 (stereo unspecified) | x | x | x | x | 3.0 | i | 2.8
COC(=O)Nc1nc2ccc(-c3n[nH]c(=O)c4ccccc34)cc2[nH]1 | 7.5 | 0.68 | 0.7 | 30% | x | x | 1.6
CCc1ccc(Nc2n[n+](-c3ccccc3)c(-c3ccc(N(CC)CC)cc3)s2)cc1 | 0.0 | 0.69 | -4.9 | x | 17 | i | 175
CC(Cc1ccccc1)NC(=O)C1(c2ccccc2)CCOCC1 (stereo unspecified) | 7.1 | 0.68 | 0.5 | -9% | x | x | 1.4
CC(=O)Nc1ccc(Nc2cc(C)nc3c(-c4ccc(Cl)cc4)c(C)nn23)cc1 | -123 | 0.68 | 0.1 | -51% | x | x | 8.5
Nc1cccc(CCc2nc3cc4ccccc4cc3[nH]2)c1 | 4.8 | 0.62 | 2.3 | x | x | x | -0.1
COc1cc(C(=O)O/N=C2\C=CC(=O)C(C)=C2)cc(OC)c1OC | x | x | 1.0 | 13% | x | x | -0.3
COc1cccc(C(=O)NC(=S)Nc2ccccc2N2CCCC2)c1 | 19 | 0.74 | -3.5 | 7% | 5.5 | i | -2.4
O=C(Cn1nnc(-c2ccc(Cl)cc2)n1)NC1CC2CCC1C2 (stereo unspecified) | 5.1 | 0.76 | u | -6% | x | x | 0.1
CCOC(=O)C(O)(C1C(=O)CC(C)(C)CC1=O)C(F)(F)F (stereo unspecified) | 0.9 | 0.75 | -2.5 | 31% | x | x | 4.1

An excerpt from above, showing only UCH37 DUB inh and Vif TR-FRET:
SMILES | UCH37 DUB inh | Vif TR-FRET
Nc1cccc(CCc2nc3cc4ccccc4cc3[nH]2)c1 | 4.8 | x
COc1cc(C(=O)O/N=C2\C=CC(=O)C(C)=C2)cc(OC)c1OC | x | 13%
